E coli growth: E. coli growth inhibition, primary screen, OD600; 330,000 tested, 0.21% active; Escherichia coli growth, 23 h; hits give low values; OD600 absorbance (concentration not given with the values);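 active = OD600 absorbance below the run mean of sample wells minus 3.6 SD, in any replicate, cut at about 0.56 in these data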;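 note: stock transfer was 300 nL into about 60 µL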
Beta2AR agonist: beta2AR agonists driving receptor internalization, primary screen, cell-based, FAP fluorogen, flow cytometry; Am2.2-beta2AR cells; reference of the scale not given here; 340,000 tested, 0.43% active; AID 504454, 2011; response, % (concentration not given with the values);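 active = response above a set limit, near 3 SD of response in nonfluorescent compounds, cut at about 42% in these data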;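 note: stock transfer was 100 nL into about 11 µL; a reference agonist was the positive control; negative values mostly stem from fluorescent compounds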
UCH37 inh: inhibitors of human UCH37 deubiquitinase, primary screen, biochemical, Ub-AMC cleavage, fluorescence. 330,000 tested, 0.33% active. purified proteasome/UCH37. inhibition, % (test concentration not listed);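 active = mean of two replicates above 20%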;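 note: 0% = compound-free wells with enzyme and 100% = wells lacking proteasome; stock transfer was 100 nL into about 20 µL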
Target sequence (Q9Y5K5 whole entry, looked up): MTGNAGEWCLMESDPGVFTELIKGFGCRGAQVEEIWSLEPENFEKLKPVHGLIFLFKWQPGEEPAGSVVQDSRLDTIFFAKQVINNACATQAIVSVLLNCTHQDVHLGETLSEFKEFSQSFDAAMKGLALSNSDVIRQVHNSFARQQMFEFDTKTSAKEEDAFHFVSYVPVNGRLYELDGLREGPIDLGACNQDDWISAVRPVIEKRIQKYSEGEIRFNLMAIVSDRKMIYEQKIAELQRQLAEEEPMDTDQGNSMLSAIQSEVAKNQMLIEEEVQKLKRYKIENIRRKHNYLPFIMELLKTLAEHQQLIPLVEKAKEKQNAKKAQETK
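Test system – human UCH37 enzyme supplied as purified proteasome complex · Incubation – 30 min preincubation with enzyme, 25 min cleavage at room temperature · Detection – AMC fluorescence from Ub-AMC cleavage, excitation 355 nm, emission 460 nm · Benchmarks – no-proteasome wells (full inhibition) and compound-free wells (no inhibition)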
ALR inh: inhibitors of human ALR sulfhydryl oxidase, primary screen, biochemical, H2O2 detection, HRP-luminol luminescence, single point | FAD-linked sulfhydryl oxidase ALR (Homo sapiens), P55789 | inhibition, % (concentration not given with the values) | purified ALR, DTT oxidation | AID 485317, 2010 | 290,000 tested, 3.8% active;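 active = mean and each replicate at 75% or more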;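 note: stock transfer was 7.5 nL into about 7.5 µL; 0% = neutral wells and 100% = wells with inactivated enzyme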
Target sequence (P55789 whole entry, looked up): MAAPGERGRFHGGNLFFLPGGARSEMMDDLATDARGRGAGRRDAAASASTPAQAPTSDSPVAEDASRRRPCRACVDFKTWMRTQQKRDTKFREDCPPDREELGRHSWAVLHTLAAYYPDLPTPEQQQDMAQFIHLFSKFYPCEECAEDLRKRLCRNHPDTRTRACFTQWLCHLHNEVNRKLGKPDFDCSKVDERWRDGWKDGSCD
rRNA inh HTS: reduced GFP signal of wild-type E. coli, primary screen, bacterial rRNA inhibitor project, GFP/RFP fluorescence, OD600, single point | 350,000 tested, 1.6% active | E. coli WT GFP vs humanized-ribosome RFP mutants, 24 h; hits give low values; DMSO median 0, no signal -100 | GFP signal change (wild-type ribosome), % (no concentration beside the values);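 active = significant combined selectivity score with lowered wild-type GFP, culture density cut under 30%, mutant RFP and density less affected; inactive = any of these conditions unmet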; note: one replicate is shown; some compounds called inactive have numbers as strong as hits
HNF4A DNA FP: change in binding of human HNF4A to DNA, primary screen, biochemical, fluorescence polarization, FITC-DNA; 1 h; AID 1224865, 2016; 360,000 tested, 0.3% active; activity change, % at 10 µM; Hepatocyte nuclear factor 4-alpha (Homo sapiens), P41235; in the data active = activity change above about 30%, passing the limit was not always enough;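 note: controls were the assay level and a saturating level of protein; the project sought stronger binding though the title names inhibitors; some compounds called inactive have numbers as strong as hits; positive values seem to mean higher polarization but the record does not say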
FGF22 binding: binders of human FGF22 protein, primary screen, FGF22 synaptogenesis inhibitor project, biophysical, thermal shift, single point | recombinant FGF22 thermal shift, SYPRO orange fluorescence; percent of sucrose octasulfate shift, DMSO zero | calls only at 9.99 µM | 340,000 tested, 1.5% active;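 active = melting point raised past a set limit in the mean and every replicate; three in four hits are not shown here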
Target sequence (Q9HCT0 whole entry, looked up): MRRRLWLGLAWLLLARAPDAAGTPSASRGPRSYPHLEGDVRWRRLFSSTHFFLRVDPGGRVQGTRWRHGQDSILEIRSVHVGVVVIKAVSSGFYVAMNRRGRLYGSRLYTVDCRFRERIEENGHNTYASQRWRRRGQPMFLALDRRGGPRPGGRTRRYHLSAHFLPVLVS
rRNA inh HTS OD600: further read-out of rRNA inh HTS, marked with its call; OD600 change, %; measured here: OD600 growth;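 optical density of the mix in the first replicate; 0 = DMSO median and -100 = no signal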
rRNA inh HTS RFP: recorded beside rRNA inh HTS, whose call it bears; RFP signal change, %; measured here: RFP humanized mutant strains;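 first replicate; 0 = DMSO median and -100 = no signal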
* hit, by the source's call; i = inactive; nt = no result given. The list is partial (hit frequency here may not be typical).

SMILES	E coli growth	Beta2AR agonist	UCH37 inh	ALR inh	rRNA inh HTS	rRNA inh HTS OD600	rRNA inh HTS RFP	HNF4A DNA FP	FGF22 binding
Cc1ccc(Sc2ccc(S(=O)(=O)Nc3ccc(CC(=O)O)cc3)cc2)cc1C	0.64	1	3.6	-2	-18	-50	-4.7	0.3	i
COc1ccc(NC(=O)CCc2nnc3ccc(N4CCC5(CC4)OCCO5)nn23)cc1	0.7	-3	2.0	-5	3	-3	-3.3	5.6	i
Cc1cc(SCC(=O)Nc2cccc(S(=O)(=O)NC3=NCCCCC3)c2)c(C)cc1Br	0.72	-11	2.5	nt	nt	nt	nt	-2.5	nt
O=C(CCN1C(=O)c2ccccc2C1=O)Oc1ccc2ccccc2c1	0.75	1	0.8	-17	nt	nt	nt	2.3	nt
COCCn1c(SCC(=O)c2ccccc2)nc2ccccc2c1=O	0.68	-4	5.6	97*	-16	-8	-0.8	1.7	nt
N#Cc1ccc(-n2nnc3ccccc3c2=O)c([N+](=O)[O-])c1	0.65	-22	-0.1	-10	21	4	1.7	1.2	i
O=C(Nc1ccc(F)cc1)Nc1nnc(Cc2ccccc2)s1	0.64	1	3.9	-15	7	11	1.6	-2.1	i
COc1ccc(N2C(=O)CC(NNc3nc4ccccc4s3)C2=O)cc1 (stereo not drawn)	0.7	7	1.5	-1	-1	-3	5.1	1.9	i
O=C(O)c1ccccc1C(=O)N1CCN(c2ncccn2)CC1	0.66	-4	0.3	0	5	3	-1.7	-0.2	i
CCOC(=O)N1CCN(S(=O)(=O)c2ccc3c(c2)SC(C)C(=O)N3)CC1 (stereo not drawn)	0.7	-10	4.6	-6	nt	nt	nt	-0.4	nt
O=C(OCc1c(F)cccc1Cl)c1cnc2ccccc2n1	0.68	46*	2.4	-1	4	2	-0.6	1.2	i
COc1ccc(/C=N/NC(=S)Nc2cccc(C(=O)O)c2)cc1	nt	-2	nt	31	4	15	-0.7	0.6	nt
CC(C)NC(=O)C(Cc1ccccc1)N1C(=O)c2ccccc2C1=O (stereo not drawn)	0.69	-3	-0.4	-4	nt	nt	nt	18	nt
CSc1ccc(C(=O)C2CCCN(C(=O)CCCn3cncn3)C2)cc1 (stereo not drawn)	0.68	7	5.0	-6	11	1	-1.9	3.8	nt
COCCNS(=O)(=O)c1ccc(-c2ccc(S(=O)(=O)NCCOC)cc2)cc1	0.71	-2	2.1	nt	nt	nt	nt	2.3	nt
CC(C)(C)NS(=O)(=O)c1ccc(Oc2ncc(C(F)(F)F)cc2Cl)cc1	0.65	-13	-0.5	-23	nt	nt	nt	1.2	nt
O=C(/C=C/c1ccc([N+](=O)[O-])cc1)N1CCN(Cc2ccccc2)CC1	0.69	0	1.5	-3	8	10	0.0	3.2	i
CC(C)C[C@H](NC(=O)[C@H](Cc1ccccc1)n1c(=O)[nH]c2ccccc2c1=O)C(=O)N1CCC[C@@H]1C(=O)O	0.7	9	-0.6	-19	nt	nt	nt	-0.6	i
Cc1ccc(C)c(NC(=O)CN(C)C(=O)CSC(C)C(=O)Nc2cc(C)on2)c1 (stereo not drawn)	0.68	-4	0.6	-2	1	0	3.5	-2.3	i
Cc1ccc(C2(C)NC(=O)N(CC(=O)Nc3ccccc3C(=O)N3CCCCC3)C2=O)cc1 (stereo not drawn)	0.62	1	-2.9	-3	7	9	-0.5	5.0	i
CCCc1cc(=O)[nH]c(SCC(=O)Nc2cc(S(=O)(=O)N3CCOCC3)ccc2Cl)n1	0.66	0	0.5	-3	1	0	1.4	0.7	i
Fc1ccc(Oc2nccc(-c3ccc(Cl)cc3)n2)cc1	0.76	-6	5.5	-12	nt	nt	nt	1.6	nt
Nc1ccc2ccccc2c1N=Nc1ccccc1	0.66	1	3.0	nt	-31*	-20*	1.2*	-2.5	i
CCOc1ncccc1C(=O)NCC(c1ccco1)N1CCCCC1 (stereo not drawn)	0.68	-1	4.4	2	nt	nt	nt	-0.8	i
CCN1/C(=C2\OC(=S)N(C)C2=O)C=Cc2ccccc21	0.69	-6	6.2	3	9	4	37	77	nt
COc1ccc(C(=O)N2CCc3ccc(NC(=O)c4ccccn4)cc3C2)cc1F	0.68	-3	3.5	nt	-6	-15	-3.4	4.1	i
O=C(COC(=O)Cc1ccc(F)cc1)Nc1ccc2[nH]c(=O)[nH]c2c1	0.69	-3	1.7	-11	4	-1	-0.7	0.4	i
OCC1(CCOc2ccccc2)CCN(Cc2ccc(OC(F)F)cc2)CC1	0.65	2	4.1	nt	-2	-4	-0.2	0.3	i
COc1ccc(C(=O)N/N=C2/SCC(=O)N2Cc2ccc3c(c2)OCO3)cc1OC	nt	-5	nt	2	nt	nt	nt	-3.2	nt
COc1ccc(C(C(=O)NCc2ccccc2)n2c(=O)c(-c3cc4ccccc4[nH]3)nc3ccccc32)cc1 (stereo not drawn)	nt	nt	nt	nt	14	11	2.3	-1.5	i
Cc1ccc(CSc2nnc(-c3ccccn3)n2Cc2cccs2)cc1	nt	nt	nt	nt	-2	-31	-6.0	2.8	i
O=c1c2ccccc2nc2ccc(NCc3cccs3)nn12	0.72	-8	-13	-3	-6	7	1.4	-0.1	i
Cc1ccc(-c2nc(CS(=O)(=O)CC(=O)N3CC(C)CC(C)C3)c(C)o2)cc1 (stereo not drawn)	0.74	-4	-5.2	0	-14	-52	-11	5.9	i
CCSc1ccccc1C(=O)NCc1ccc2c(c1)OCO2	0.71	6	-0.4	-1	nt	nt	nt	-2.5	nt
N#CCO/N=C(\c1ccccc1)c1ccncc1	nt	5	nt	1	nt	nt	nt	1.2	nt
O=C(c1ccccc1)C(CCc1ccccn1)CCc1ccccn1	0.66	-10	-0.3	nt	-5	-8	6.9	-0.5	i
Nc1ccc2ncccc2c1N	0.66	-4	17	nt	nt	nt	nt	5.3	nt
CCOc1ccccc1CNC(=O)c1ccc(NC(=O)C2=CSCCO2)cc1	0.69	5	4.9	-1	-6	-19	9.3	0.0	i
COC(=O)C(Cc1cccc(C)n1)(c1ccccc1)c1ccccc1	0.67	6	3.7	7	3	-31	-9.7	1.2	i
CCOC(=O)N1CCC(NC(=O)c2ccc3c(Cl)c4c(nc3c2)CCCC4)CC1	0.73	-5	-0.2	5	7	1	3.7	3.5	i
NC(=S)NN=C1c2cc(S(=O)(=O)N3CCOCC3)ccc2-c2ccc(S(=O)(=O)N3CCOCC3)cc21	0.71	9	7.2	6	nt	nt	nt	-1.0	nt
COC(=O)c1ccc(C2=NOC(C)(c3nnc(-c4cccc(Cl)c4)o3)C2)cc1 (stereo not drawn)	0.71	1	1.3	-3	nt	nt	nt	-1.9	nt
CNc1nc(-c2ccc(OC)cc2)c(-c2ccc(OC)cc2)s1	0.7	1	-2.7	nt	-3	1	9.0	1.6	i
CC(C)OCCCn1c(=N)c(C(N)=S)cc2c(=O)n3ccccc3nc21	0.7	6	-107	-1	nt	nt	nt	-0.3	nt
Cc1ccc(/C=C/C(=O)N2CCN(S(=O)(=O)c3cccs3)CC2)o1	0.7	4	6.1	1	5	10	0.7	0.9	i
Cc1ccc(-c2c(C(=O)N/N=C/c3sccc3C)nnn2-c2nonc2N)cc1	nt	-9	nt	-14	-3	-3	1.8	2.3	i
CN1CC(=O)N(C)c2nc(Br)n(C)c2C1=O	0.74	7	1.7	-6	7	-2	-0.8	-3.8	i
COc1ccc(OC)c(S(=O)(=O)NCCC(C)C)c1	0.68	0	2.7	-11	3	8	0.4	-0.9	i

Ordered by formula weight (ascending): part of the list above
SMILES	E coli growth	Beta2AR agonist	UCH37 inh	ALR inh	rRNA inh HTS	rRNA inh HTS OD600	rRNA inh HTS RFP	HNF4A DNA FP	FGF22 binding
CN1CC(=O)N(C)c2nc(Br)n(C)c2C1=O	0.74	7	1.7	-6	7	-2	-0.8	-3.8	i
O=c1c2ccccc2nc2ccc(NCc3cccs3)nn12	0.72	-8	-13	-3	-6	7	1.4	-0.1	i
O=C(Nc1ccc(F)cc1)Nc1nnc(Cc2ccccc2)s1	0.64	1	3.9	-15	7	11	1.6	-2.1	i
COCCNS(=O)(=O)c1ccc(-c2ccc(S(=O)(=O)NCCOC)cc2)cc1	0.71	-2	2.1	nt	nt	nt	nt	2.3	nt
CC(C)C[C@H](NC(=O)[C@H](Cc1ccccc1)n1c(=O)[nH]c2ccccc2c1=O)C(=O)N1CCC[C@@H]1C(=O)O	0.7	9	-0.6	-19	nt	nt	nt	-0.6	i

(further entries)
SMILES	E coli growth	Beta2AR agonist	UCH37 inh	ALR inh	rRNA inh HTS	rRNA inh HTS OD600	rRNA inh HTS RFP	HNF4A DNA FP	FGF22 binding
COc1ccc(CNc2cc(C)ccc2C)c(OC)c1OC	0.75	-4	2.4	98*	nt	nt	nt	1.7	nt
O=C(N/N=C/c1ccc(O)cc1)c1[nH]c2ccc(Br)cc2c1-c1ccccc1	nt	4	nt	25	0	-2	-1.8	-3.4	i
Cn1ccs/c1=N\C(=O)Nc1ccccc1	nt	-13	nt	7	3	-2	-2.0	-1.2	i
COC(=O)[C@]1(CC(C)C)N[C@H](c2ccc(-c3ccc(F)cc3)cc2)[C@@H]2C(=O)N(C)C(=O)[C@@H]21	nt	4	0.3	-2	1	-1	5.5	-1.4	i
CCOC(=O)Cn1c(=O)oc2cc(S(=O)(=O)NC3CCCc4ccccc43)ccc21 (stereo not drawn)	0.72	4	1.3	3	2	-11	-0.6	0.6	i
CC(=O)NC(Cc1ccc(F)cc1)C(=O)NC1CCN(c2ncccc2[N+](=O)[O-])CC1 (stereo not drawn)	0.7	1	2.4	-1	14	9	1.6	0.6	i
Cc1c(C(=O)/C=C/c2ccccc2F)c2cc(O)ccc2n1C	nt	nt	nt	nt	0	-1	-1.2	-1.4	i
O=S(=O)(c1ccccc1)N1CCN(C2CCCCCCC2)CC1	0.72	-14	2.6	5	nt	nt	nt	-1.7	nt
O=C(C(Cc1ccccc1)NS(=O)(=O)c1cccc2cccnc12)N1CCc2ccccc21 (stereo not drawn)	0.76	3	6.4	88*	-5	-6	-0.8	3.5	i
CCOc1ccc(Nc2nc(N(C)c3ccccc3)nc(N)c2[N+](=O)[O-])cc1	0.71	0	3.0	2	13	17	0.1	-2.5	i
C#CCOCCOCCOCCNc1nc(N2CCN(C(=O)C([C@@H](C)O)n3cc([C@@H](N)CCCCN)nn3)CC2)nc(N2CCN(C(=O)[C@H](CCCCN)n3cc([C@@H](N)[C@H](C)CC)nn3)CC2)n1 (stereo partly drawn)	0.71	4	4.8	nt	11	19	2.0	76*	i
CC(=O)NC(Cc1ccccc1F)C(=O)NC1CCN(S(=O)(=O)c2ccccc2)CC1 (stereo not drawn)	0.69	-6	4.5	nt	1	2	-2.9	1.6	i
Cc1ccc(N(C(=O)Cc2c[nH]c3ccccc23)C(C(=O)NC2CCCCC2)c2ccco2)cc1 (stereo not drawn)	0.71	-3	3.9	nt	nt	nt	nt	3.5	nt
COCCCN(Cc1cc(OC)c(OC)c(OC)c1)C(=S)Nc1cccc(SC)c1	nt	nt	nt	nt	-23	-29	-5.1	4.3	i
COc1ccc(C(=O)COC(=O)c2cc([N+](=O)[O-])ccc2N2CCOCC2)c(OC)c1	nt	-14	nt	-4	-7	-4	1.5	-1.0	i
O=C(O)C1CCCCC1C(=O)Nc1ccc(S(=O)(=O)N2CCCC2)cc1 (stereo not drawn)	0.64	-4	1.5	2	14	2	-2.4	-3.4	nt
O=C(COC(=O)/C=C/c1cccc(Br)c1)NCCc1ccccc1	0.66	0	-1.2	-18	5	13	-0.2	-0.8	i
